Screening results (PubChem)
sEH act = increases human soluble epoxide hydrolase activity; P34913; purified human sEH enzymatic activity, activator screen; activation, % at 2 µM; 91,000 tested, 0.04% active; AID 717; in the data active = activation above about 37%; note: values of inactives mirror those of a sister screen read the other way
Target sequence (P34913 whole entry, looked up): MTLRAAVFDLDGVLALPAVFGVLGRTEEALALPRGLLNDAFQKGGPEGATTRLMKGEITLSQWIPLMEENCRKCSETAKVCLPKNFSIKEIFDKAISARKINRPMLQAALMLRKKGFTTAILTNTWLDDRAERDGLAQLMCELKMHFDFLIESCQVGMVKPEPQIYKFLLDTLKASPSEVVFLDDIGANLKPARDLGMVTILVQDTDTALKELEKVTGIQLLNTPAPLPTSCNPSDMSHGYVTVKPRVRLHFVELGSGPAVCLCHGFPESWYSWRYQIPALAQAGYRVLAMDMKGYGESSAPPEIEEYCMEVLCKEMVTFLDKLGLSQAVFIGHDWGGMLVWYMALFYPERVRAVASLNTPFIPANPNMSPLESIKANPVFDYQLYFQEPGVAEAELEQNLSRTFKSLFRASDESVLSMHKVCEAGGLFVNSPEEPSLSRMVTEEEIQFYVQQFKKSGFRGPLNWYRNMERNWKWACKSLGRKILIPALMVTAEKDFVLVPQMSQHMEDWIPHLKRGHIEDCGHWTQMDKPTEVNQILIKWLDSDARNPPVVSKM
sEH inh = inhibitors of human soluble epoxide hydrolase | P34913 | recombinant human sEH enzymatic activity assay | inhibition, % at 2 µM | 91,000 tested, 0.34% active | AID 707; in the data active = inhibition above about 80%; note: values of inactives mirror those of a sister screen read the other way; many of its hits are not listed in these tables
PostGolgi yeast = growth inhibition of a yeast mutant, post-Golgi transport screen; 98,000 tested, 0.9% active; inhibition, % at 10 µM; post-Golgi transport phenotypic cell assay;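 note: yeast cells grown in 1536-well plates; yeast grown about 18 h at 30C before absorbance read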
S1P2 ag = S1P2 (human) receptor agonism; O95136; S1P2-expressing cell line, agonist reporter read-out; activation, % at 4.5 µM; 97,000 tested, 0.46% active; in the data active = activation above about 16%;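 note: 0% = vehicle low control and 100% = maximal reference agonist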
Target sequence (O95136 whole entry, looked up): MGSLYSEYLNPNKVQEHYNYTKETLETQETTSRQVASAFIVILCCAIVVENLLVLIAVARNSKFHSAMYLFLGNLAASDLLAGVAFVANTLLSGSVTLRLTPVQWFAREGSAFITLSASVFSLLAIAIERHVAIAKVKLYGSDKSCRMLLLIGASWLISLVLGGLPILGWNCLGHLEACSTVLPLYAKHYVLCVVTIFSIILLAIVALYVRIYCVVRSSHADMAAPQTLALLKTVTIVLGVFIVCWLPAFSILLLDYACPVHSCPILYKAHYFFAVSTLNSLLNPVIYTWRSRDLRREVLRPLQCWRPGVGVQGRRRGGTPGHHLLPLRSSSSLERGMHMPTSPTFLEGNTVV
DAT uptake mod = changed human dopamine transporter uptake under cocaine IC80; Q01959; LLC-PK1 hDAT cells, [14C]-dopamine uptake with cocaine IC80; actives deviate in either direction; B-score at 10 µM; 110,000 tested, 1.3% active;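 active = Z score or B-score, a plate-position-corrected score, falls beyond the plate's 99.7% confidence bounds, in either direction; inactive = both scores lie inside the 99.7% bounds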;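 note: scored against the spread of the other compound wells on the same plate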
PostGolgi ctrl = inhibits growth of the yeast control strain; efflux-deficient yeast background strain, growth absorbance A615, 16 h; inhibition, % at 10 µM; 98,000 tested, 5% active
S1P2 antag = blocks the human S1P2 receptor. AID 736. inhibition, % at 5 µM. cell-based S1P2 antagonist assay, inhibition at 5 uM. O95136. 97,000 tested, 0.21% active; in the data active = inhibition above about 45%;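 note: CRE beta-lactamase reporter cells expressing human S1P2 stimulated with S1P; 0% = agonist at EC80 alone and 100% = agonist plus reference antagonist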
* marks the source's active call; other numbers are inactive results; x = not tested or not shown. Cut-off read from the data, not from the text of the source, unless noted: active = inhibition above about 30%; inactive = the rest. These rows are one share of the data; count on the stated rates, not on these rows.

SMILES	sEH act	sEH inh	PostGolgi yeast	S1P2 ag	DAT uptake mod	PostGolgi ctrl	S1P2 antag
Cc1ccc(-c2nc3ccccc3[nH]2)cc1NC(=O)c1ccc2c(c1)OCO2	-20	21	1	1	1.3	15	-3
O=C(CN1C(=O)C2C3C=CC(C3)C2C1=O)NC1CCCc2ccccc21 (stereo not given)	-79	79	-4	-3	0.45	4	15
CCCCCCCCCCn1cc(C(C)=O)c(=O)[nH]c1=O	-18	22	-2	-8	0.002	19	-4
O=C(CNc1cccc2ccccc12)N/N=C/C(Br)=C/c1ccccc1	-26	28	-18	-14	-0.43	0	-1
COCCN1C(=O)C(O)=C(C(=O)c2cccs2)C1c1ccccc1 (stereo not given)	-8	8	-4	-4	0.21	4	-9
CCOC(=O)c1[nH]c(C)c(C(=O)N2CCc3ccccc32)c1C	2	-2	0	-1	-0.47	2	-9
CCOC(=O)c1sc(C)c2c(=O)n(Cc3ccc(Cl)cc3)c(C)nc12	11	-5	-1	-6	0.89	12	-18
O=C(CCCn1cnc([N+](=O)[O-])n1)Nc1ccc(Cl)c(Cl)c1	-12	13	-1	-2	0.86	6	22
O=C(c1ccc(COc2ccccc2Br)o1)N1CCN(c2ccccn2)CC1	5	-3	-3	-5	2	35*	3
O=C(Nc1cc(C(F)(F)F)cc(C(F)(F)F)c1)c1ccc(Cn2cc(C(F)(F)F)ccc2=O)cc1	8	-5	9	-14	x	-3	21
CCOC(=O)CSc1nnc(Cc2ccccc2)n1-c1cccc(Cl)c1	-5	8	-5	-6	0.64	3	16
CN(C)c1ccc(/C=N/NC(=S)NCc2ccccc2)cc1	-3	6	-3	-3	-0.51	11	9
CCOC(=O)Cc1csc(N/N=C/c2ccc(C(F)(F)F)cc2)n1	-11	9	-1	-1	x	12	1
Fc1ccccc1CNc1cc(Cl)cc(Cl)c1	16	-13	4	-5	-0.45	6	1
O=C(NCC1COc2ccccc2O1)C1C2C=CC3(CN(Cc4cccs4)C(=O)C13)O2 (stereo not given)	10	-6	7	-10	-1.9	-1	10
COc1ccc(S(=O)(=O)N(C)CC(=O)NCc2ccco2)cc1	10	-10	-4	-5	-0.21	8	9
O=C(Cn1cnc2cc(Cl)ccc2c1=O)Nc1ccc2c(c1)OCO2	-5	3	4	-7	0.5	5	2
COC(=O)C1C2CCC(C2)C1C(=O)OCC(=O)c1ccccc1 (stereo not given)	1	0	-9	-1	-0.08	11	0
CCOc1ccc(-n2c(C)nc3cc(C(=O)NCc4ccco4)ccc32)cc1	1	-1	0	-7	0.47	9	10
Cc1ccc(C(=O)c2ccccc2C(=O)O)s1	0	-1	-1	-5	0.023	16	4
N#Cc1ccccc1CN1C(=O)S/C(=C/c2cccn2-c2cccc(C(=O)O)c2)C1=O	-8	8	2	-4	1	3	-29
Cc1ccccc1NC(=O)N1C2CCC1CC(O)(c1cccnc1)C2 (stereo not given)	-3	4	-3	-1	1.2	-1	15
Cc1ccnc(N2C(=O)C3C4CC(C(Br)C4Br)C3C2=O)c1 (stereo not given)	10	-7	-1	-4	-0.81	-7	-6
Cc1ccc(OCc2nnc(SCC(=O)O)n2N)cc1	5	-5	15	-2	0.17	-11	9
O=C(NCc1ccco1)C(c1ccccc1)N(C(=O)Cc1cccs1)c1ccccc1F (stereo not given)	-2	4	-1	-3	0.24	6	18
Remaining list, next part
SMILES	sEH act	sEH inh	PostGolgi yeast	S1P2 ag	DAT uptake mod	PostGolgi ctrl	S1P2 antag
Cc1ccc(NC(=O)C(C)N2C(=O)C3C4CC(C(Br)C4Br)C3C2=O)cc1 (stereo not given)	1	1	5	-7	0.56	11	5
COc1cccc(N(CC(=O)Nc2cccc(C(C)=O)c2)S(C)(=O)=O)c1	-9	9	-10	-2	0.43	15	10
Cc1c(NC(=O)OCCNC(=O)Nc2ccccc2)sc(=S)n1C	7	-8	-12	-5	-0.38	6	-2
CCCCn1c(Cl)nc2c1c(=O)n(C)c(=O)n2C	-6	7	1	-4	-0.62	-1	16
CCCn1nc2cc(C(=O)NCc3ccc(C)cc3)ccc2c1OCC	-10	11	-25	-8	0.83	14	9
CCn1nnnc1SCC(=O)c1ccc2c(c1)OCCO2	11	-9	0	-6	x	1	10
Cc1ccc(NCCC(=O)c2ccc(Cl)c(Cl)c2)cc1	0	0	2	-4	-0.35	9	5
O=C(Nc1cc(Sc2ccccn2)cc([N+](=O)[O-])c1)c1ccc(Cl)cc1	-9	14	12	-6	-1.4	18	3
COC(=O)c1cn[nH]c1NC(=S)Nc1ccccc1C	-8	6	1	57*	-0.41	8	-1
Cn1c(N/N=C/c2c[nH]c3ccccc23)nc2ccccc21	-1	3	-3	-4	0.32	4	5
CCOC(=O)C1=C(c2ccccc2)NC(=S)NC1c1cc([N+](=O)[O-])ccc1OC (stereo not given)	0	0	12	-5	0.69	12	13
CC1(C)CC(=O)C(C2C3=C(CC(C)(C)CC3=O)Oc3ccccc32)=C(O)C1 (stereo not given)	11	-18	9	-5	1.2	22	-18
CN1CCCC1CCNC1C2CC3CC(C2)CC1C3 (stereo not given)	0	1	-9	-4	x	6	8
Cc1cc(=O)[nH]c(SCC(=O)Nc2ccc(S(=O)(=O)N3CCOCC3)cc2)n1	-8	9	9	-3	0.71	2	9
CCCn1c(Sc2nc3c(c(=O)[nH]c(=O)n3C)n2CCC)nc2c1c(=O)[nH]c(=O)n2C	1	0	5	-2	1	0	1
CCOC(=O)CN1C(=O)C(Sc2n[nH]c(-c3ccc(C)cc3)n2)CCc2ccccc21 (stereo not given)	4	-4	-5	-5	1.2	3	2
CCC(=O)Nc1ccc(S(=O)(=O)N2CCN(c3ccc(F)cc3)CC2)cc1	1	-2	-8	-5	-0.92	5	14
CC(C)OP(=O)(OC(C)C)C(NC(=O)c1ccc(Br)cc1)c1ccccc1 (stereo not given)	x	x	0	0	0.77	17	-10
O=c1c(-c2nc3ccccc3s2)cccn1Cc1ccc(Cl)cc1	32	-29	-12	96*	0.44	-3	-87
Cc1cc2c(c(=O)o1)C1(C(=O)N(CC(=O)O)c3ccccc31)C(C#N)=C(N)O2 (stereo not given)	x	x	-1	-3	-0.066	-4	8
Cc1ccc2occ(/C=C/C(=O)c3ccccc3O)c(=O)c2c1	13	-14	5	-1	0.18	13	-11
COc1cc(-c2cc(-c3ccccc3)nc(SCC(=O)Nc3nccs3)c2C#N)cc(OC)c1OC	6	-5	2	31*	-0.012	-6	-23
COc1cc(C2NC(=O)NC(c3ccccc3)=C2C(C)=O)ccc1OCC(=O)O (stereo not given)	0	0	-5	0	-0.0092	-6	17
CC(C)NS(=O)(=O)c1ccc(NC(=S)NC(=O)c2ccc(-c3ccccc3)cc2)cc1	6	-4	-7	-11	-0.38	0	37
Cc1ccc(-c2cccc(OC(=O)c3ccccc3F)c2)cc1	18	-19	0	-6	x	16	22
Later entries.
SMILES	sEH act	sEH inh	PostGolgi yeast	S1P2 ag	DAT uptake mod	PostGolgi ctrl	S1P2 antag
CCCS(=O)(=O)N1CCCC(C(=O)NCCN(Cc2ccccc2)C(C)C)C1 (stereo not given)	-9	7	5	-5	1.2	6	-4
CC(=O)Nc1ccc(-c2cn3cccnc3n2)cc1	15	-16	3	-3	-0.52	1	7
COc1cc(CNCCN2CCOCC2)ccc1OCc1ccccc1Cl	-3	6	-4	-7	-1.3	3	-11
CCCn1nnc(NC(=O)c2cccc(Cl)c2)n1	6	-6	-2	-5	0.22	8	4
C1CCN(c2nc3nonc3nc2N2CCCC2)C1	-13	13	-8	-3	-1.3	7	15
CC(C)(C)c1ccc(C(=O)Nc2ccc(NC(=O)c3ccco3)cc2)cc1	-11	13	-8	-10	0.42	5	8
CC(=O)Nc1ccc(S(=O)(=O)N2CCN(C(=O)c3cccnc3)CC2)cc1	-14	15	-1	-11	-0.27	-3	-12
O=C(Cc1ccccc1)N(c1ccc(F)cc1)C1C=CS(=O)(=O)C1 (stereo not given)	0	0	6	-4	0.17	7	29
O=C(CSc1nc2ccccc2s1)N1c2ccccc2Sc2ccccc21	0	2	23	-7	0.76	6	-2
Cc1sc2nc(SCc3ccccc3)n(Cc3ccco3)c(=O)c2c1C	-10	11	1	-9	0.11	7	12
Cc1cc2ncn(C3CC(=O)N(C)C3=O)c2cc1C (stereo not given)	0	1	5	-3	0.87	8	-8
CC(=O)C1=C(C)OC(N)=C(C#N)C1c1cc2cccc(C)c2nc1Cl (stereo not given)	-8	10	1	-1	-0.1	-7	-8
C/C(=N\Nc1nnc(C)c(=O)[nH]1)C(=O)O	-4	1	8	-6	0.98	23	3
O=C(O)C1CCN(S(=O)(=O)/C=C/c2ccccc2)CC1	-6	6	-2	-5	-0.12	-5	-1
CCCCN1C2=C(C(=O)CCC2)C(c2ccc(Cl)c(Cl)c2)C2=C1c1ccccc1C2=O (stereo not given)	33	-29	-5	0	-0.27	18	17
Cc1nn2c(N3CCN(C(=O)c4ccco4)CC3)cc(C(C)(C)C)nc2c1-c1ccc(Cl)cc1	4	-6	3	-5	-0.53	3	-2
COC(=O)c1c(C)n(-c2ccccc2)c2ccc(O)cc12	-3	1	1	-4	-0.22	43*	-23
Cc1sc(CO)c(Sc2ccccc2)c1C(=O)O	8	-8	1	-10	x	34*	19
CCN(CC)S(=O)(=O)c1ccc(Cl)c(NC(=O)c2ccccc2C)c1	3	-3	0	-3	0.42	-3	2
Nc1ccc(N(c2ccccc2)c2ccc(N)cc2)cc1	-1	3	8	0	-0.56	3	14
CC(=O)C(N=Nc1ccccc1)(Sc1nnc(-c2ccccc2)n1-c1ccccc1)C(C)=O	-4	3	-8	-12	0.043	47*	7
COc1ccccc1CN(Cc1cc2cc(C)cc(C)c2[nH]c1=O)Cc1nnnn1CC1CCCO1 (stereo not given)	-14	14	3	-6	1.3	3	-1
CCOC(=O)c1[nH]c(C)c(CN(CCc2ccccc2)C(=O)CCC(=O)O)c1C	7	-9	-5	-2	-0.38	7	-8
CCS(=O)(=O)NCC(c1cccnc1)N1CCN(c2ccccc2F)CC1 (stereo not given)	11	-10	0	-3	0.84	-5	6
COCCCNC(=O)CCS(=O)(=O)Cc1ccc(C)cc1	2	-3	20	0	-0.29	22	21
Remaining list, next part
SMILES	sEH act	sEH inh	PostGolgi yeast	S1P2 ag	DAT uptake mod	PostGolgi ctrl	S1P2 antag
NNC(=O)c1cn2ccccc2n1	-9	12	0	-2	-0.19	7	2
COc1cccc(-c2noc(-c3cccnc3)n2)c1	-8	7	-3	-10	1	9	-8
N=c1n(CCN2CCOCC2)c2ccccc2n1CC(=O)c1ccc(Cl)c(Cl)c1	1	-1	-2	-3	1.4	0	0
CC1CCN(C2CCN(S(=O)(=O)c3ccc(F)cc3)CC2)CC1	-4	7	5	-9	-2	31*	-9
CCOC(=O)c1[nH]c2ccccc2c1NC(=O)c1nonc1C	8	-9	-1	-4	-1.4	16	-12
N#Cc1cc2c(nc1SC1CCCCC1O)CCCC2 (stereo not given)	-11	11	-8	-3	-0.75	3	-18
